VCAM-1 imaging: suppression of endothelial VCAM-1 upregulation – imaging, high-content imaging, pooled HUVEC, TNFa stimulus (AID 456) | HUVEC TNFa-induced VCAM-1 surface expression, immunofluorescence imaging; numbers were filed only for top-ranked candidate wells | inhibition, % at 5 µM; hits with a dose series show IC50 in µM | 0.2% of 10,000 active;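 active = top tenth filtered wells with inhibition above zero that passed visual or statistical confirmation; inactive = the rest, including hits rejected on review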;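 also: 0% = stimulated vehicle wells and 100% = unstimulated cells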
FPR ligand: human FPR ligand, with FPRL1 counter-screen. P21462. FPR-expressing cells, fluorescent ligand binding, flow cytometry. inhibition, %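 (tested at 6.7 µM)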. 0.74% of 24,000 active;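 also: 0% = buffer wells and 100% = receptor blocker peptide wells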
Target sequence (P21462 whole entry, looked up): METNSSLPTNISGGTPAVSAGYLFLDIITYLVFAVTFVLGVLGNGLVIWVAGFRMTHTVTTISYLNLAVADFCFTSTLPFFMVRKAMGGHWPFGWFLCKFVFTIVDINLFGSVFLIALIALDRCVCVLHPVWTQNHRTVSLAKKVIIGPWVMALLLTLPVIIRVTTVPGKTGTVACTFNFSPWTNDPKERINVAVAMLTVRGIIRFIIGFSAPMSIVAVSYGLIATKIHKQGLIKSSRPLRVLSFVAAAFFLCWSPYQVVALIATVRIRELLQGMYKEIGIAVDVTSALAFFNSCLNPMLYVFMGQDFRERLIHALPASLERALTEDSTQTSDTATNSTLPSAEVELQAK
VCAM-1 augmentation: enhancers of VCAM-1 display on endothelial cells, imaging, high-content imaging, pooled HUVEC, TNFa stimulus (AID 457). Pooled HUVEC, TNFa-induced VCAM-1 immunofluorescence imaging; hits of this screen are not shown here. calls only. 0.2% of 10,000 active;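 active = a top-ranked rise in VCAM-1 staining upheld on image or statistical review; inactive = the rest, including candidates rejected on review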;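 also: compounds tested at 5 µM in the well; cells exposed to compound for 24 hours before fixing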
VCAM-1 down: inhibitors of TNFa-induced VCAM-1 surface display, cell-based, plate reader, pooled HUVEC, TNFa stimulus (AID 454). HUVEC TNFa-induced VCAM-1 surface immunofluorescence, plate reader; numbers were filed only for top-ranked candidate wells. inhibition, % at 5 µM. 0.2% of 10,000 active;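 active = compound among top-ranked inhibitors of TNF-induced VCAM-1 adhesion protein staining, with the hit upheld by image or statistical review; inactive = the rest, including hits rejected on review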;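 also: 0% = TNFa with vehicle and 100% = cells without TNFa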
FPRL1 ligand: ligands of human FPRL1, also counter-screen for FPR ligands | P25090 | FPRL1-expressing cells, fluorescent ligand binding inhibition, flow cytometry | inhibition, %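 (tested at 6.7 µM)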 | 0.3% of 24,000 active;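 also: 0% = buffer alone and 100% = receptor blocker peptide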
Target sequence (P25090 whole entry, looked up): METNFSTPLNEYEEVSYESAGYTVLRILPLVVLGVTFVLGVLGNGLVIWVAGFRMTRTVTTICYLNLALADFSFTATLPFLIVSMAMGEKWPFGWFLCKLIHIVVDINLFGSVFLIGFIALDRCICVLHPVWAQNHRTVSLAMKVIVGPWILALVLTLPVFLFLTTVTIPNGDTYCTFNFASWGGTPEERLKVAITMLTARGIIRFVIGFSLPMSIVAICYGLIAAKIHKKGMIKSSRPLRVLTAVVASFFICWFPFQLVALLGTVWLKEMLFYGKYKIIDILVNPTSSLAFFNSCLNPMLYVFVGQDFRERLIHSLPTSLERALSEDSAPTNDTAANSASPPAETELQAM
Starred values were filed as active, the others as inactive.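 The calls were made as follows, unless noted: active = mean above 30%; inconclusive = self-fluorescent; inactive = the rest.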 An excerpt (hit frequency here may not be typical).

COc1ccccc1NC(=O)C1=C(C)Nc2nc(-c3cccs3)nn2C1c1cccnc1 (stereo not drawn) was read as FPR ligand 1 and FPRL1 ligand 0.
COC(=O)c1sc2cnccc2c1N was read as FPR ligand -4 and FPRL1 ligand 0.
Screening COC(=O)c1ccccc1NC(=O)c1cc(-c2ccc(OC)c(OC)c2)on1 returned VCAM-1 imaging inactive, FPR ligand -7, VCAM-1 augmentation inactive, VCAM-1 down inactive and FPRL1 ligand 3.
`Cc1c(C(=O)NCc2cccnc2)oc2ccc(S(=O)(=O)N3CCCC(C)C3)cc12` (stereo not drawn) gave FPR ligand 4 and FPRL1 ligand -2.
For CCOc1ccc(-c2nnn(CCC(=O)O)n2)cc1OC the results were VCAM-1 imaging inactive, FPR ligand 13, VCAM-1 augmentation inactive, VCAM-1 down inactive and FPRL1 ligand 11.
Cc1noc(C)c1CSc1nnc2scc(-c3ccc(Cl)cc3)n12 was read as VCAM-1 imaging inactive, FPR ligand -4, VCAM-1 augmentation inactive, VCAM-1 down inactive and FPRL1 ligand 1.
`CCCCNc1cc(C(=O)O)cc(S(N)(=O)=O)c1Oc1ccccc1` gave VCAM-1 imaging inactive, FPR ligand 2, VCAM-1 augmentation inactive, VCAM-1 down inactive and FPRL1 ligand -4.
For O=C(CCn1c(=O)oc2ccccc21)N1CCN(c2ccccc2F)CC1 the results were FPR ligand -2 and FPRL1 ligand -2.
Screening Cc1cc(-c2ccco2)n(CC(=O)NCCN(C)C)n1 returned FPR ligand -9 and FPRL1 ligand 6.
`COc1cccc(OC)c1OCC(O)CN1CCN(c2ccccc2)CC1` (stereo not drawn) gave FPR ligand 0 and FPRL1 ligand -15.
`COc1ccccc1-c1nc(C(N)=O)c2[nH]c(=O)n(-c3cccc(C)c3)c2n1` gave FPR ligand 3 and FPRL1 ligand 4.
`O=C(CSc1nnnn1-c1ccccc1)Nc1nsc(-c2ccc(Cl)cc2)n1` gave VCAM-1 imaging inactive, FPR ligand 0, VCAM-1 augmentation inactive, VCAM-1 down inactive and FPRL1 ligand -4.
Screening CCCCS(=O)(=O)N1CN(S(=O)(=O)CCCC)C2NC(=O)NC21 (stereo not drawn) returned FPR ligand 3 and FPRL1 ligand 0.
Cn1c2c(c(=O)n(C)c1=O)C1c3ccccc3OCC1C(C)(C)O2 (stereo not drawn) was read as FPR ligand -1 and FPRL1 ligand 6.
`CCc1c(C)nc(N)n2c(SCC(=O)N3CCCc4ccccc43)nnc12` gave VCAM-1 imaging inactive, FPR ligand -6, VCAM-1 augmentation inactive, VCAM-1 down inactive and FPRL1 ligand -8.

The final 3 records of the section above open the next one:
Screening CCCCS(=O)(=O)N1CN(S(=O)(=O)CCCC)C2NC(=O)NC21 (stereo not drawn) returned FPR ligand 3 and FPRL1 ligand 0.
Cn1c2c(c(=O)n(C)c1=O)C1c3ccccc3OCC1C(C)(C)O2 (stereo not drawn) was read as FPR ligand -1 and FPRL1 ligand 6.
`CCc1c(C)nc(N)n2c(SCC(=O)N3CCCc4ccccc43)nnc12` gave VCAM-1 imaging inactive, FPR ligand -6, VCAM-1 augmentation inactive, VCAM-1 down inactive and FPRL1 ligand -8.
`Cc1nn(-c2nc3ccccc3[nH]2)c(N)c1-c1ccccc1` gave VCAM-1 imaging inactive, FPR ligand 6, VCAM-1 augmentation inactive, VCAM-1 down inactive and FPRL1 ligand -2.
Screening CCN(CC)CCCNC(=O)c1cc2c(=O)n(C)c3ccccc3c2n1C returned FPR ligand 7 and FPRL1 ligand -2.
CCOC(=O)N1CCN(C(=O)c2oc3ccc(S(=O)(=O)N4CCCCCC4)cc3c2C)CC1 was read as FPR ligand 3 and FPRL1 ligand 2.
Screening N#CC1=C(N)Oc2cc(O)ccc2C1C1CCCCC1 (stereo not drawn) returned VCAM-1 imaging inactive, FPR ligand 3, VCAM-1 augmentation inactive, VCAM-1 down inactive and FPRL1 ligand -3.
For CCOC(=O)C1=C(C)N=C2SC(CC)C(=O)N2C1c1cccc(F)c1 (stereo not drawn) the results were FPR ligand 1 and FPRL1 ligand -6.
Screening COc1ccccc1C1CC(c2ccc(C)cc2)Nc2ncnn21 (stereo not drawn) returned VCAM-1 imaging inactive, FPR ligand -4, VCAM-1 augmentation inactive, VCAM-1 down inactive and FPRL1 ligand 2.
Screening Cc1ccc(NC(=O)C2CCCN(S(=O)(=O)c3c(C)noc3/C=C/N(C)C)C2)cc1F (stereo not drawn) returned FPR ligand 0 and FPRL1 ligand -7.
`O=C(NC(=O)c1ccc(Cl)c(Cl)c1)OC1CCS(=O)(=O)C1` (stereo not drawn) gave FPR ligand 1 and FPRL1 ligand -1.
Screening COc1ccc(C2C(=O)N(CCc3ccccc3)CC(=O)N2C2CCCC2)cc1 (stereo not drawn) returned FPR ligand 3 and FPRL1 ligand -1.
O=C(Nc1ccon1)c1cnc2sccn2c1=O was read as FPR ligand -1 and FPRL1 ligand -2.
`Cc1noc(C)c1S(=O)(=O)N1CCC(Cc2ccccc2)CC1` gave FPR ligand -11 and FPRL1 ligand 2.
For O=C(CS(=O)(=O)c1cn(Cc2ccc(F)cc2)c2ccccc12)N1CCCCC1 the results were VCAM-1 imaging inactive, FPR ligand 0, VCAM-1 augmentation inactive, VCAM-1 down inactive and FPRL1 ligand 2.
Cc1noc(C)c1C(=O)Nc1nnc(-c2ccccc2)s1 was read as FPR ligand 3 and FPRL1 ligand 0.
For Cn1c(Cc2csc(N)n2)nnc1SCC(=O)NC1CCCCC1 the results were VCAM-1 imaging inactive, FPR ligand -6, VCAM-1 augmentation inactive, VCAM-1 down inactive and FPRL1 ligand 4.
For COc1cc2c(cc1OC)C(C(=O)N1CCCC1)C(c1ccccc1F)N(C)C2=O (stereo not drawn) the results were FPR ligand -1 and FPRL1 ligand 4.
COc1ccc(-n2nnc3c(=O)n(Cc4ccccc4C)cnc32)cc1 was read as FPR ligand 6 and FPRL1 ligand -15.
For CCN(CC)CCNC(=O)c1cc2c(=O)n(C)c3ccccc3c2n1C the results were FPR ligand -3 and FPRL1 ligand 2.
CCc1cccc(NC(=O)C2CCCN(S(=O)(=O)c3c(C)[nH]c(=O)[nH]c3=O)C2)c1 (stereo not drawn) was read as VCAM-1 imaging inactive, FPR ligand -2, VCAM-1 augmentation inactive, VCAM-1 down inactive and FPRL1 ligand 5.
`O=C(Nc1cccc(Cl)c1)c1ccc2c(=O)n3c(nc2c1)CCCCC3` gave FPR ligand 16 and FPRL1 ligand -8.
For COCCN1Cc2cccc(C(=O)NCc3cccnc3)c2C1=O the results were FPR ligand -2 and FPRL1 ligand -7.
`Cn1c(=O)cc(OCC(=O)N2CCC(N3CCCCC3)CC2)c2ccccc21` gave FPR ligand -3 and FPRL1 ligand -8.
Screening COc1ccccc1-c1cc2nc(C)c(CCC(=O)NCc3ccco3)c(C)n2n1 returned VCAM-1 imaging inactive, FPR ligand 2, VCAM-1 augmentation inactive, VCAM-1 down inactive and FPRL1 ligand -4.
For O=C(c1ccc(CS(=O)(=O)c2c(Cl)cccc2Cl)o1)N1CCCC1 the results were FPR ligand 2 and FPRL1 ligand -4.
For Cc1ccnc(NS(=O)(=O)c2ccc(NC(=O)C3CCCCC3C(=O)O)cc2)n1 (stereo not drawn) the results were FPR ligand 0 and FPRL1 ligand 1.
`CCOc1ccccc1C1CC(c2ccc(Cl)cc2)Nc2nc(N)nn21` (stereo not drawn) gave FPR ligand -1 and FPRL1 ligand 1.
CCCN1Cc2cccc(C(=O)Nc3ccc(OC)c(OC)c3)c2C1=O was read as FPR ligand -1 and FPRL1 ligand 0.
`CC(C)(C)c1nc(CN2CCOCC2)ccc1O` gave VCAM-1 imaging inactive, FPR ligand 0, VCAM-1 augmentation inactive, VCAM-1 down inactive and FPRL1 ligand -2.
For CCOC(=O)c1ccc(N=Cc2nc(-c3ccccc3)oc2OC(C)=O)cc1 the results were VCAM-1 imaging inactive, FPR ligand 4, VCAM-1 augmentation inactive, VCAM-1 down inactive and FPRL1 ligand 5.
Screening CCOC(=O)N1CCN(C(=O)c2cnn3ccccc23)CC1 returned FPR ligand 0 and FPRL1 ligand 3.
Screening COc1cccc(C(=O)Nc2c(C(N)=O)oc3ccccc23)c1 returned VCAM-1 imaging inactive, FPR ligand 1, VCAM-1 augmentation inactive, VCAM-1 down inactive and FPRL1 ligand -6.

Ordered by length of the SMILES (ascending): three of the compounds above
Screening Cc1cc(-c2ccco2)n(CC(=O)NCCN(C)C)n1 returned FPR ligand -9 and FPRL1 ligand 6.
Cc1noc(C)c1C(=O)Nc1nnc(-c2ccccc2)s1 was read as FPR ligand 3 and FPRL1 ligand 0.
COc1ccccc1NC(=O)C1=C(C)Nc2nc(-c3cccs3)nn2C1c1cccnc1 (stereo not drawn) was read as FPR ligand 1 and FPRL1 ligand 0.

(next part)
Screening Cc1ccc(-c2noc(CCC(=O)Nc3ccc4c(c3)OCO4)n2)cc1 returned FPR ligand 0 and FPRL1 ligand 1.
Screening O=C(CSc1nc2c(cnn2-c2ccccc2)c(=O)[nH]1)c1ccc(Cl)cc1 returned FPR ligand -4 and FPRL1 ligand 6.
Screening Cc1cc(N2CCN(C(=O)c3ccco3)CC2)n2nc(C)nc2n1 returned FPR ligand -7 and FPRL1 ligand -2.
`O=C1CC(Cc2ccccc2)C(=O)N1CCc1ccc2c(c1)OCO2` (stereo not drawn) gave VCAM-1 imaging inactive, FPR ligand 6, VCAM-1 augmentation inactive, VCAM-1 down inactive and FPRL1 ligand -4.
`O=C(Cn1nnc(-c2cccs2)n1)OC1CCCCC1` gave VCAM-1 imaging inactive, FPR ligand -1, VCAM-1 augmentation inactive, VCAM-1 down inactive and FPRL1 ligand -2.
`Cc1cc(NC(=O)CSc2nc3c(c(=O)n2-c2ccc(Cl)cc2)SCC3)no1` gave FPR ligand 2 and FPRL1 ligand 0.
Screening O=C(NC1CCCC1)C(c1ccc(Cl)cc1)N1CCOCC1 (stereo not drawn) returned FPR ligand -7 and FPRL1 ligand 3.
O=C(O)COc1ccc(Oc2ccccc2)cc1 was read as VCAM-1 imaging inactive, FPR ligand -7, VCAM-1 augmentation inactive, VCAM-1 down inactive and FPRL1 ligand 11.
`CCOC(=O)N1CCC(NC(=O)c2ccc3c(c2)ncn3C2CCCC2)CC1` gave FPR ligand -5 and FPRL1 ligand -1.
Screening COc1cc(C2=NOC(C(=O)Nc3ccc(C)cc3)C2)cc(OC)c1OC (stereo not drawn) returned FPR ligand 5 and FPRL1 ligand 3.
For CCS(=O)(=O)NCc1cn2ccsc2n1 the results were FPR ligand -1 and FPRL1 ligand 0.
`O=C(Cn1nc(-c2ccccc2)ccc1=O)N1CCOCC1` gave FPR ligand -4 and FPRL1 ligand 0.
`CC(C)CCNC(=O)Cc1c(C(=O)O)[nH]c2ccc(Cl)cc12` gave FPR ligand -1 and FPRL1 ligand 0.
O=C(c1cc(-c2ccc3c(c2)OCO3)on1)N1CCN(c2ccccc2)CC1 was read as FPR ligand -7 and FPRL1 ligand -2.
Screening CCOc1ccc(-c2noc(-c3ccncc3)n2)cc1OCC returned VCAM-1 imaging inactive, FPR ligand 1, VCAM-1 augmentation inactive, VCAM-1 down inactive and FPRL1 ligand 4.
`Cn1c(=O)n(CCN2CCOCC2)c(=O)c2c1nc1n2CCN1c1ccccc1` gave VCAM-1 imaging inactive, FPR ligand 0, VCAM-1 augmentation inactive, VCAM-1 down inactive and FPRL1 ligand 1.
Screening O=C(NC1CCCC1)c1ccc(S(=O)(=O)N2CCCC2)cc1 returned VCAM-1 imaging inactive, FPR ligand -6, VCAM-1 augmentation inactive, VCAM-1 down inactive and FPRL1 ligand 4.
Screening COCCn1cc(C(=O)N2CCN(C)CC2)c2c3ccccc3n(C)c2c1=O returned FPR ligand 1 and FPRL1 ligand -2.
`Cc1cc(C)cc(-n2nnc(C(=O)NCc3ccc4c(c3)OCO4)c2N)c1` gave VCAM-1 imaging inactive, FPR ligand -4, VCAM-1 augmentation inactive, VCAM-1 down inactive and FPRL1 ligand -4.
COC(=O)c1ccccc1NC(=O)CSc1nc(N)cc(N)n1 was read as FPR ligand -8 and FPRL1 ligand -4.
`c1ccc(N2CCOCC2)c(Nc2nc3ccccc3n3cnnc23)c1` gave FPR ligand -4 and FPRL1 ligand -2.
For O=C(CN1CCN(c2cccc(Cl)c2)CC1)N1CCCC1 the results were VCAM-1 imaging inactive, FPR ligand -3, VCAM-1 augmentation inactive, VCAM-1 down inactive and FPRL1 ligand 2.
Screening C=CCSc1nc2nc(C)cc(C)n2n1 returned FPR ligand -4 and FPRL1 ligand -4.
`O=C(NCc1cccnc1)NC1(C(F)(F)F)Oc2ccccc2O1` gave FPR ligand 5 and FPRL1 ligand 7.
Cc1ccc(S(=O)(=O)NCCCNC(=O)N2CCOCC2)cc1 was read as VCAM-1 imaging inactive, FPR ligand -15, VCAM-1 augmentation inactive, VCAM-1 down inactive and FPRL1 ligand -17.

High-throughput results from PubChem BioAssay.
